CSC inhib = cancer stem cell inhibition | inhibition, % at 7.5 µM | hit rate 1.1% among 300,000 | cancer stem cell-like cells viability, luminescence;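 active means mean at 75% or more and at least half the replicates too; tested in HMLE shEcad cells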;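 further: 0% = median of negative and 100% = median of positive control wells; the first replicate is given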
eIF4H FP inh = inhibitors of RNA binding by human eIF4H; hit rate 0.94% among 290,000; inhibition, % at 35 µM; eIF4H fluorescence polarization binding assay; Q15056;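 active means 50% or more with normal probe brightness, or confirmed in later tests; about a fifth of its hits are not listed in these tables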;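 further: calls also rest on retests at 20 µM and on dose response follow-up; 0% = protein and probe with vehicle and 100% = probe without protein; strong numbers were not always called active; many hits fall short of the cut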
Rce1 inh = blocks yeast Ras-converting enzyme. hit rate 0.27% among 290,000. AID 2563. yeast membranes, quenched prenylated peptide cleavage fluorescence. calls only;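 active means fall in fluorescence gain of 50% or more versus controls, with final raw signal at or below 3038400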;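 further: plate controls were neutral control wells for no effect and wells lacking membranes for full effect; tested at 10 µM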
Target sequence (Q03530 whole entry, looked up): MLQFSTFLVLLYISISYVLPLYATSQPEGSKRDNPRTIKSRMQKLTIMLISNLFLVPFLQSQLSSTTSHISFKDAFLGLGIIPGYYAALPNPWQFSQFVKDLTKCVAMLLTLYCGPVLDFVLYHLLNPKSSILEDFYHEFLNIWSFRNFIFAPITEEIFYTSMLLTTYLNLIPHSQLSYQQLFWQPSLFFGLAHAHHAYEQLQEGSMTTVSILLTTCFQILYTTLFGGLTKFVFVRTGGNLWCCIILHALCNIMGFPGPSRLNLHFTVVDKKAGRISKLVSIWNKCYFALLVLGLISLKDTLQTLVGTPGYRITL
UUG fidelity = alters start codon recognition fidelity in yeast; S. cerevisiae UUG-firefly luciferase reporter, luminescence/redox ratio; activity score, % at 18.7 µM; hit rate 0.13% among 350,000;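 active means replicate mean at a twofold rise or more, about +100% in these data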;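 further: firefly luciferase made from a UUG start codon reports start codon fidelity; reporter light over untreated wells divided by growth signal over untreated wells; some hits fall short of that in this replicate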
HIV Env fusion = inhibitors of HIV Env-mediated cell fusion; HeLa-JRFL Env/CEM21 cell fusion, luciferase; inhibition, % at 12.3 µM; hit rate 1.1% among 360,000; AID 651610;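 active means mean replicate inhibition score of at least 50 and every replicate individually at or above 50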;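 further: 0% = plate neutral controls and 100% = maraviroc near 300 nM; one replicate is shown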
PABP polyA inh = PABP-poly(A) binding inhibition; P11940; PABP-poly(A) RNA binding, fluorescence polarization; inhibition, % at 35 µM; hit rate 1% among 290,000;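 active means 50% or more with normal probe brightness, or confirmed in later tests; about a fifth of its hits are not listed in these tables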;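 further: calls also rest on retests at 20 µM and on dose response follow-up; controls were probe without protein and protein plus probe with vehicle; some compounds called inactive have numbers as strong as hits; many hits fall short of the cut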
Target sequence (P11940 whole entry, looked up): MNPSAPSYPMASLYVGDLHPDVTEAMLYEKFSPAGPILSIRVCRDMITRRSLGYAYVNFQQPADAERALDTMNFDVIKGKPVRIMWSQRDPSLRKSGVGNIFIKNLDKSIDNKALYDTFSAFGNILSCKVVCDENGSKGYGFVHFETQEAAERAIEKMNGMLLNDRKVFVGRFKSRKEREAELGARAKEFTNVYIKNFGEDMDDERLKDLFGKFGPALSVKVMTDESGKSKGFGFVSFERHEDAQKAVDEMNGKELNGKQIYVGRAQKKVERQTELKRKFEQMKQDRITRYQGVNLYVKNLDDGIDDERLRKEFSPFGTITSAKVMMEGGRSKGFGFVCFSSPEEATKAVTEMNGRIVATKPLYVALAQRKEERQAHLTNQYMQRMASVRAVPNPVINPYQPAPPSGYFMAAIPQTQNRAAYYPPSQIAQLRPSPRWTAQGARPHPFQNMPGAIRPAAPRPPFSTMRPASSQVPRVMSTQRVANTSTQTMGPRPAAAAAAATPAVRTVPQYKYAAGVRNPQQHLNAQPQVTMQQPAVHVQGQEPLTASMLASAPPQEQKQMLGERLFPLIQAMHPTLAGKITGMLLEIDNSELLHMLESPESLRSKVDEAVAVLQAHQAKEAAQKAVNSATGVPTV
MT1-MMP act inh = inhibitors of human MT1-MMP activation | GFP/RFP ratio change, % at 20 µM | HT1080 RFP-PRO-GFP cells, GFP/RFP ratio fluorescence, overnight; percent of plate control window, DMSO zero | P50281 | hit rate 0.061% among 360,000;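 active means GFP/RFP ratio change of at least 30% with cell ATP level not reduced by more than half and red fluorescence within 50% of control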; further: strong numbers were not always called active
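Assay system – RFP-PRO-GFP reporter HT1080 cells · Compound dosing – single dose of 20 µM compound, 1% DMSO final · Incubation – overnight compound exposure at 37 °C · Measure – GFP/RFP fluorescence ratio · Benchmarks – DMSO wells and RFP-L50D-GFP cells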
MT1-MMP act inh RFP = also measured in MT1-MMP act inh; calls as there; RFP signal change, %; measured here: RFP expression control read;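 0 = vehicle wells; hits needed this value within 50% of zero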
Numbers without * were called inactive; i = inactive; nt = no result given; & = joins results of further samples.

SMILES | CSC inhib | eIF4H FP inh | Rce1 inh | UUG fidelity | HIV Env fusion | PABP polyA inh | MT1-MMP act inh | MT1-MMP act inh RFP
Cc1ccc(S(=O)(=O)NCCc2cc3ccc(C)c(C)c3[nH]c2=O)cc1 | 8.6 | -8.8 | i | -12.7 | 7.6 | -5.3 | -3.4 | -4.5
COc1ccc(C(=O)Nc2nc(C)c(C(=O)N(C)C)s2)cc1OC | -7.5 | 0.7 | i | -13.9 | 0.0 | 16.2 | -2.1 | -2.6
O=C(Nc1nccs1)c1ccc(S(=O)(=O)N2CCCCC2)cc1 | -14.5 | -4.8 | i | -12.8 | -17.5 | -9.7 | -0.4 | -7.4
Cc1ccc(CNC(=O)c2cc3c(s2)CN(Cc2ccccc2)C3)cc1 | -4.2 | 0.1 | i | 0.6 | 9.7 | -0.1 | 2.3 | 6.3
Cc1oc(-c2cccc3ccccc23)nc1CN1CCN(c2ncnc3ccccc23)CC1 | 12.1 | -10.4 | i | nt | 27.9 | -3.0 | -3.1 | -23.3
Cc1ccccc1-n1c(SCC(=O)N2CCN(c3ccccn3)CC2)nnc1N1CCOCC1 | nt | nt | nt | -19.3 | -11.4 | nt | 3.4 | 7.0
O=C(c1cn(-c2ccccc2)nc1-c1ccncc1)N1CCCCC1 | -21.4 | -5.8 | i | -10.9 | -52.4 | 2.8 | -3.7 | -4.1
CCOC(=O)C1=CN(Cc2ccco2)S(=O)(=O)N(C)C1c1ccc(F)c(Cl)c1 (stereo not given) | nt | nt | nt | -12.7 | 1.8 | nt | -2.5 | -6.2
CC(C)OCCCn1c(SC(C)C(=O)NC2CC2)nc2ccccc2c1=O (stereo not given) | -12.0 | nt | i | 28.1 | nt | nt | 4.5 | -0.8
C/C(=N\NC(=O)c1ccc(O)cc1)c1ccc(NC(=O)Cc2ccccc2)cc1 | 14.4 | -8.3 | i | 11.7 | -11.2 | -1.8 | 4.1 | 4.7
Cc1nonc1C1CCCN1Cc1cn[nH]c1-c1ccc2c(c1)OCO2 (stereo not given) | 2.4 | -11.7 | i | -13.7 | 4.8 | -11.2 | -2.6 | 2.0
Cc1cccc(NC(=O)CSc2nnnn2C2CCCC2)c1 | nt | -4.2 | i | -7.0 | -4.3 | -0.1 | 0.5 | 3.9
O=C(NC(=S)N1CCCc2ccccc21)c1ccco1 | 5.3 | -2.7 | i | nt | 11.2 | 40.1 | 3.9 | 4.4
Cc1ccc(S(=O)(=O)NN2C(=O)c3ccccc3NC2c2ccco2)cc1 (stereo not given) | nt | -1.4 | i | nt | 1.6 | 4.3 | 5.6 | 5.4
COc1ccc(CNC(=O)CN(Cc2ccccc2)C(=O)CCC(=O)Nc2nccs2)cc1 | 9.7 | 5.4 | i | -7.0 | 5.7 | 3.9 | -7.4 | -3.4
CS(=O)(=O)N1CCN(c2ccc(NC(=O)c3ccc([N+](=O)[O-])o3)cc2)CC1 | nt | -3.2 | nt | -17.1 | -392.9 | 19.4 | -2.0 | -23.2
COc1ccc(NC(=S)N(CCCN2CCC(C)CC2)Cc2cccs2)cc1 | 10.0 | -8.0 | i | -3.0 | 5.1 | -8.0 | 1.1 | -1.1
CN(c1ccccc1)S(=O)(=O)c1cccc(C(=O)OCC(=O)Nc2ccc(C(N)=O)cc2)c1 | -11.3 | nt | nt | 15.8 | -13.8 | nt | 3.5 | -1.6
Cc1cccc(NC(=O)CSc2nnc([C@H](C)NC(=O)OC(C)(C)C)o2)c1C | 1.6 | -9.3 | i | -8.5 | -2.8 | 4.9 | 0.5 | 1.9
CC(C)CC(NC(=O)OC(C)(C)C)c1cn([C@@H](CCC(=O)OC(C)(C)C)C(=O)N2CCN(C(=O)OC(C)(C)C)CC2)nn1 (stereo not given in full) | 1.1 | 4.7 | i | 2.8 | 20.0 | -6.8 | -9.0 | -11.1

Single records (already shown). Order of screens: CSC inhib | eIF4H FP inh | Rce1 inh | UUG fidelity | HIV Env fusion | PABP polyA inh | MT1-MMP act inh | MT1-MMP act inh RFP
Cc1ccc(S(=O)(=O)NN2C(=O)c3ccccc3NC2c2ccco2)cc1 (stereo not given) is entered as nt | -1.4 | i | nt | 1.6 | 4.3 | 5.6 | 5.4
CS(=O)(=O)N1CCN(c2ccc(NC(=O)c3ccc([N+](=O)[O-])o3)cc2)CC1 is entered as nt | -3.2 | nt | -17.1 | -392.9 | 19.4 | -2.0 | -23.2

More entries follow.
SMILES | CSC inhib | eIF4H FP inh | Rce1 inh | UUG fidelity | HIV Env fusion | PABP polyA inh | MT1-MMP act inh | MT1-MMP act inh RFP
Cc1c(Cl)ccc2c1NC(=O)C21NC(CCC(N)=O)[C@H]2C(=O)N(c3ccc(Cl)cc3)C(=O)[C@H]21 (stereo not given in full) | -16.8 | -6.3 | i | 16.1 | -6.4 | 1.2 | -6.4 | -0.8
O=C(c1ccccc1)N1N=C(c2ccccc2)CC1c1ccccc1 (stereo not given) | -3.4 | 1.4 | i | -6.0 | -0.5 | 4.1 | -8.2 | -3.2
CNC(=O)C(=O)NCCc1ccc(Cl)cc1 | 0.1 | -7.1 | i | nt | nt | -9.8 | 0.1 | 0.5
O=C(NCCOc1ccc(Cl)cc1)c1cccc(S(=O)(=O)N2CCCC2)c1 | -1.3 | nt | nt | -7.9 | 12.5 | nt | nt | nt
O=C(c1ccc2ncsc2c1)N1CCN(c2ccc(O)cc2)CC1 | 0.1 | -5.0 | i | nt | nt | 0.4 | -1.8 | 0.8
COc1ccc(OC)c(C2NC(=O)NC(C)=C2C(=O)Nc2ccc(C)cc2C)c1 (stereo not given) | -2.5 | -0.8 | i | -20.7 | -62.8 | -9.7 | 1.8 | -1.0
COc1ccc(-n2ncc3c2CC(C)(C)CC3NC(=O)c2cnc(C)cn2)cc1 (stereo not given) | -10.0 | -2.1 | i | -29.1 | 0.4 | 2.1 | 2.4 | 0.8
CC(C)C(NC(=O)C12CC3CC(CC(C3)C1)C2)C(=O)N/N=C/C1=C(N2CCOCC2)C(=C\c2ccc([N+](=O)[O-])cc2)/CC1 (stereo not given) | -3.0 | -14.5 | i | nt | 28.8 | -7.0 | -24.4 | -5.3
CCNC(=O)CC1C(=O)N(c2ccccc2)C(=O)N1CCc1ccc(OC)c(OC)c1 (stereo not given) | 4.9 | -4.5 | i | nt | -38.5 | 3.1 | -6.7 | 0.5
c1nc(N2CCCCC2)c2[nH]cnc2n1 | -5.2 | 8.8 | i | -16.8 | 22.8 | 9.4 | -2.8 | 0.5
COc1ccc(/C=N/n2c(=S)n(C)c3ccccc32)cc1OC | -3.2 | -7.1 | i | -21.5 | -12.7 | -1.3 | 3.1 | 1.2
O=C(NCc1ccc(F)cc1)c1[nH]c(C(F)(F)F)nc1-c1ccccc1 | nt | nt | nt | -12.9 | 33.6 | nt | -0.9 | -5.5
O=C(Nc1c(F)c(F)c(F)c(F)c1F)NC1CCCCC1 | -7.3 | -10.3 | i | -0.3 | 6.0 | -3.7 | -1.2 | -8.8
O=C(NCc1ccco1)/C(=C\c1ccco1)NC(=O)c1cccs1 | -4.9 | 34.1 | i | nt | 8.7 | 19.4 | 1.0 | 4.3
CCOc1ccc(CN(C)C(=O)CN2C(=O)NC(c3ccccc3)(c3ccccc3)C2=O)cc1 | nt | nt | nt | 3.5 | -2.3 | nt | 3.0 | -1.9
CCc1ccc(C(=O)COC(=O)c2cccc(N3C(=O)c4c(C)nc5ccccc5c4C3=O)c2)cc1 | -4.5 | 5.3 | i | -20.2 | -43.3 | 7.2 | 5.0 | 1.5
CC(C)CCN1C(=O)c2ccc(C(=O)OCC(=O)N(C)C3CCS(=O)(=O)C3)cc2C1=O (stereo not given) | 2.5 | nt | i | 5.9 | -3.3 | nt | 0.7 | -1.0
O=C(NCCN1CCOCC1)N1CCOCC1 | -17.1 | -1.0 | i | -13.0 | -24.1 | -8.1 | -3.0 | 2.1
Cc1cccc2nc(CSc3nnnn3-c3ccccc3)cn12 | -6.4 | -0.3 | i | -25.8 | -44.2 | -0.4 | -0.3 | -1.2
COc1coc(/C=C/C(=O)O)cc1=O | 5.6 | 0.6 | i | nt | 16.3 | -3.5 | -0.9 | -1.0
C[C@@H]1CN([C@H](C)CO)S(=O)(=O)c2ccc(Br)cc2O[C@H]1CN(C)C(=O)Nc1ccccc1 | nt | nt | nt | 11.4&4.7 | -20.9 | nt | -5.1 | -4.1
CCNS(=O)(=O)c1ccc(CCC(=O)N2CCN(c3ccccc3)CC2)cc1 | -1.4 | 0.1 | i | -5.9 | 3.1 | -15.9 | 0.3 | -0.1
Cc1nc2scc(C)n2c(=O)c1S(=O)(=O)Nc1ccc(N2CCOCC2)cc1 | -10.6 | 3.1 | i | -3.7 | -9.7 | 2.4 | 3.6 | -2.6
CCN(CC)S(=O)(=O)c1ccc(OC)nc1 | 1.8 | 0.8 | i | -4.5 | -37.5 | -7.9 | 1.3 | 2.2
CCN(c1ccccc1)S(=O)(=O)c1ccc(C(=O)Nc2nnc(CSC)o2)cc1 | 34.8 | -3.5 | i | -2.2 | 4.6 | -5.9 | -1.0 | 1.7
CCc1nnc(NC(=O)CSc2n[nH]c(-c3ccccc3O)n2)s1 | 10.7 | -8.8 | i | 5.1 | -1.3 | -3.2 | -0.7 | 1.9
CC1(C)Cc2c(C#N)c(N3CCCC3)nc(-c3ccco3)c2CO1 | -1.3 | 10.8 | i | -12.8 | 24.8 | 13.8 | -5.9 | 6.0
Cc1ccc(C)c(-c2[nH]ncc2CN2CCCC(CO)(Cc3ccccc3C)C2)c1 (stereo not given) | 35.2 | -4.8 | i | nt | -5.0 | -6.3 | -5.5 | 3.0
C=CCn1c(SCC(=O)O)nnc1-c1ccccc1 | -5.9 | -0.4 | i | -12.5 | 22.8 | -14.5 | 3.1 | -8.4
CC(C)N(Cc1ccccc1)C(=O)/C=C/c1ccccc1[N+](=O)[O-] | -10.8 | -6.2 | i | nt | 15.0 | -10.5 | -2.8 | -3.0
CC1CCC(NC(=O)CN2C(=O)c3ccccc3S2(=O)=O)CC1 (stereo not given) | -9.3 | nt | nt | -15.4 | nt | nt | -1.5 | -0.4
CC(C)n1c(O)c(/C=C2\C=Nc3ccccc32)sc1=Nc1ccccc1 | -6.3 | 4.4 | i | -15.5 | nt | -5.4 | 5.8 | -1.5
O=C(c1ccc(Cl)cc1)c1nnc(-c2ccncc2)o1 | -0.1 | -3.4 | i | -18.3 | nt | -2.1 | 0.2 | -4.4
Cc1cccc(C(=O)NCCc2nnc(SCC(=O)Nc3cccc(C(=O)O)c3)n2C)c1 | 14.4 | -2.2 | i | -16.5 | -3.1 | -5.5 | 0.2 | 3.2
O=C(N/N=C/c1cn(Cc2ccccc2)c2ccccc12)c1ccncc1 | 5.9 | -1.3 | i | -26.0 | -19.4 | -8.9 | 3.8 | -12.5
Cc1csc(SCc2nc3sc4c(c3c(=O)[nH]2)CCC4)n1 | nt | 2.2 | nt | -49.1 | -2.9 | 1.4 | -2.9 | 2.6
Clc1ccc(-n2cc(-c3ccc(Br)cc3)[n+]3c2CCCCC3)cc1 | -8.7 | -4.5 | i | nt | 12.6 | -2.9 | 2.1 | -8.3
COc1ccc(C(=O)NCC(=O)OCC(=O)NC2CCCCCC2)cc1 | nt | nt | nt | -11.1 | 9.6 | nt | 2.2 | 8.0
O=C(NCCCn1ccnc1)c1cc(-c2ccc(Br)cc2)on1 | 52.0 | 0.0 | i | nt | 1.4 | 4.8 | -1.5 | -0.7
O=C(Cn1c(NCCO)nc2ccccc21)Nc1cccc(S(=O)(=O)N2CCCC2)c1 | 5.6 | nt | nt | -6.0 | 29.2 | nt | 3.2 | -16.6
O=C(O)CCc1ccc(-c2ccccc2)n1CC1CCCO1 (stereo not given) | -1.1 | 10.9 | i | 1.3 | nt | 28.0 | 3.9 | 1.6
O=C(/C=C/c1cc([N+](=O)[O-])ccc1OC(F)F)Nc1cccc(OC(F)F)c1 | 4.3 | -11.9 | i | nt | -11.2 | -5.7 | 3.4 | 3.4
COc1cccc(-c2nc(CS(=O)(=O)CC(=O)Nc3ccc(F)cc3F)c(C)o2)c1 | 8.8 | -13.0 | i | nt | 4.4 | -5.6 | -0.7 | -0.6

High-throughput results deposited in PubChem by several laboratories.
